Source: PubChem BioAssay
Sfp PPTase inh – blocks B. subtilis Sfp PPTase activity; Q9F4F7; Biochemical Sfp PPTase activity, qHTS; Potency, µM, for the others: max response, negative = inhibition, usual class: inhibitors; hit rate 3.5% among 310,000; AID 1490; active = well fitted inhibition curve with a large enough effect; inconclusive = small, poorly fitted or top-dose-only effect, or another doubt; inactive = no such curve, though single readings can be large or run the other way;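 also: the enzyme is Sfp with the accession as filed and its product quenches rhodamine fluorescence; potency is read from the fitted curve at half-maximal effect; 0% = enzyme reaction without inhibitor and -100% = no enzyme wells; top concentration of the series not given in the record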
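Sfp 15 nM + cpd, 15 min RT; start w/ rhodamine-CoA 5 uM, BHQ-2-YbbR 12.5 uM (final); 50 mM Hepes pH 7.6, 10 mM MgCl2, 0.01% NP-40, 0.01% BSA; read 525/598 nm at 0 and 30 min.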
gsp ag – activates gsp, the McCune-Albright syndrome mutation. Potency, µM (top dose mostly 76.9 µM), for inactives: at the top dose activation (cAMP increase), most hits filed as activators. hit rate 0.13% among 340,000. AID 624287. gsp mutant cells, cAMP HTRF, 30 min; control for the full effect not named in the record; active = well fitted activation curve with a large enough effect; inconclusive = small, poorly fitted or top-dose-only effect, or another doubt; inactive = no such curve, though single readings can be large or run the other way; cell line not stated here;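 also: phosphodiesterase inhibitor Ro 20-1724 added with compounds to block cAMP breakdown; potency is read from the fitted curve at half-maximal effect; nearly all actives have a fitted effect of over 60% in size; about a fifth of the inactives were tested at one dose only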
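Cells stably selected in G418 were plated at 2000/well, grown 16-24 hr, then given compounds in DMSO with the PDE inhibitor […] (300 uM solution added) for 30 min at 37C; cAMP was read by HTRF.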
gsp antagonist – gsp mutant antagonism | hit rate 0.4% among 340,000 | Potency, µM (top dose mostly 76.9 µM), without a hit: top-dose activity change, negative = inhibition, usual class: inhibitors | gsp-mutant cells, cAMP HTRF, 30 min; control for the full effect not named in the record | AID 624288; active = falling curve of any shape with a large fitted effect; inconclusive = falling curve, mostly with a smaller effect; inactive = flat or rising curve; cell line not stated here;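 also: intracellular cAMP measured with PDE inhibitor Ro 20-1724 present during compound exposure; potency is read from the fitted curve at half-maximal effect; % is scaled to controls: 0 for no effect and ±100 for the full control effect; nearly all actives have a fitted effect of over 65% in size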
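HTRF cAMP measurement after 30 min RT detection following 30 min, 37C compound treatment alongside […] (added as 300 uM solution) in G418-selected cells seeded at 2000/well and grown 16–24 h.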
PINK1 modulator – modulators of PINK1 expression. PINK1 immunofluorescence, high-content cytometry, 24 h. Potency, µM (top dose mostly 76.6 µM), for inactives: at the highest dose activation (PINK1 increase), most hits filed as activators. hit rate 0.2% among 410,000; active = well fitted activation curve with a large enough effect; inconclusive = small, poorly fitted or top-dose-only effect; inactive = flat fitted curve, though single readings scatter; cell line not stated here;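 also: potency is read from the fitted curve at half-maximal effect; % of control where 0% means no effect; nearly all actives have a fitted effect of over 65% in size; a mitochondrial uncoupler was the plate control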
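Cells are seeded, rested 12 hours, then given compound at five concentrations or DMSO for 24 hours. After fixation, blocking and antibody staining, PINK1 amount and mitochondrial localization are scored; CCCP serves as control.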
ClpP mod – qHTS Assay for Activators of ClpP; ATP-dependent Clp protease proteolytic subunit (Bacillus subtilis (strain 168)), P80244; purified B. subtilis ClpP, FRET peptide cleavage, 20 min; Potency, µM (series often up to 57.5 µM), without a hit: at the top dose activity change, negative = active; hit rate 1.9% among 340,000; active = well fitted falling curve with a large enough effect; inconclusive = small, poorly fitted or top-dose-only effect; inactive = no such curve, though single readings can be large or run the other way; also: potency is read from the fitted curve at half-maximal effect; the source files actives as falling curves though it sought activators and does not explain the sign; nearly all actives have a fitted effect of over 65% in size; many hits overshoot -100%
Target sequence (P80244 whole entry, looked up): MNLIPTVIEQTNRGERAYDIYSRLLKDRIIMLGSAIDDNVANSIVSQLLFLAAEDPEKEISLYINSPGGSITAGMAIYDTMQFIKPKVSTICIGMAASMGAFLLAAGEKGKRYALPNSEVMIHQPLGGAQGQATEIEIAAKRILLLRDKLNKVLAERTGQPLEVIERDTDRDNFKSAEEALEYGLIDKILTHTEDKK
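Buffer: 100 mM Tris/HCl pH8, 100 mM KCl, 0.05% low protease BSA, 2.5% glycerol, 0.01% Tween-20. ClpP 10 microg/mL final; 20 min RT; delta FRET normalized to ADEP and DMSO controls.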
Menin-MLL FL inh – inhibitors of human menin-MLL interaction, wild-type MLL peptide | 290,000 tested, under 10 active | Fluorescence polarization, fluorescein-MLL peptide displacement from menin | AID 1766 | FP activity change, % at 61.4 µM; inconclusive = falling polarisation curve, or a change in total fluorescence; inactive = total fluorescence flat and polarisation flat or rising; no compound was filed as active; the % refers to the polarisation; negative = inhibition;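 also: % of control where 0% means no effect; inhibitors lower the polarisation; unlabelled MLL peptide was the positive control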
D2 ag – human D2 receptor agonism in beta-arrestin assay. P14416. DiscoveRx PathHunter D2 beta-arrestin, luminescence, 90 min; 100% = 57 uM dopamine signal. activation, % (no concentration beside the values). hit rate 0.084% among 360,000. AID 624465; in the data active = activation above about 40%; inconclusive = about 15% to 40%; inactive = below about 15%; also: compound concentration not given in the record; the text of the record calls up to 30% inactive
Target sequence (P14416 whole entry, looked up): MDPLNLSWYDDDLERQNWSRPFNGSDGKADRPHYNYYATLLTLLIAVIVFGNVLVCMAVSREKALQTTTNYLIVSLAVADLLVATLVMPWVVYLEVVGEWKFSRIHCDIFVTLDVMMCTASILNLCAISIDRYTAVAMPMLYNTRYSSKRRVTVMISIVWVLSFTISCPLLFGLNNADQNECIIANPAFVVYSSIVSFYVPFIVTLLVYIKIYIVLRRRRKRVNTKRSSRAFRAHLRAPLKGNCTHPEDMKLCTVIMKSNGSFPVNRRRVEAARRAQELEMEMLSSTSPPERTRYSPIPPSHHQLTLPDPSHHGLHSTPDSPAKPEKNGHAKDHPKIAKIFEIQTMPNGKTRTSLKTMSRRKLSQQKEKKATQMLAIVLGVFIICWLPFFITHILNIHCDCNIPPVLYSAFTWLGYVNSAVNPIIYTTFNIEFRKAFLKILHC
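Agonist mode: compounds alone added to overnight-plated D2 PathHunter cells for 90 min at 37 C, with 57 uM final dopamine (EC100) defining full response. Beta-arrestin recruitment detected by chemiluminescent reagent, read after 1 h at ambient temperature.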
Numbers without * were called inactive; ? = inconclusive; · = no result given; [ ] = another dose, or the depositor's remark.

SMILES	Sfp PPTase inh	gsp ag	gsp antagonist	PINK1 modulator	ClpP mod	Menin-MLL FL inh	D2 ag
Cc1cc2nc(C3CCCN(C(=S)Nc4ccccc4C)C3)[nH]c2cc1C (stereo not drawn)	6%	-26%	0%	4.4%[38.3 µM]	-4.4%	-0.9	0.3
Nc1nonc1C(=O)N/N=C/c1ccc(-c2ccc(Cl)c(C(=O)O)c2)o1	8.9µM*	-5%[15.4 µM]	8%	1.1%	·	4.3	-1.7
COc1ccc(Br)cc1CN1CCN(C(=O)c2ccc(F)cc2)CC1	?	8%[15.4 µM]	·	-0.2%	·	-3.1	-17
CCOc1cc(NC(=S)NCCCN2CCOCC2)c(OCC)cc1NC(=O)c1ccccc1C	7%	?	-9%	-1.4%	-2.2%	1.6	-3.2
CCCCN(CC)C(=O)CSc1nc2c(sc(=S)n2-c2ccc(OCC)cc2)c(=O)[nH]1	0%	-13%	?	3.6%	1.5%	0.3	-3.9
CCOC(=O)CN1C(=O)N[C@@H](c2cccc(F)c2)C(C(C)=O)=C1C	13%	·	4%	2.5%	0.8%	0.8[11.7 µM]	-3.5
Cc1cccc(N(C(=O)c2snc(C(N)=O)c2N)C(C(=O)NCC2CCCO2)c2cccs2)c1 (stereo not drawn)	-2%	-20%	-31%	0.4%	?	-2.5	1.3
Cn1c(N)c(C(=O)Nc2ccccc2)c(=O)[nH]c1=O	·	14%	4%	0.8%	-0.7%	·	0.5
O=[N+]([O-])c1ccc(N2CCN(c3ccccc3)CC2)nc1	6%	?	5%	1.0%	·	0.5	-3.0
COc1ccc(Br)cc1/C=N/NC(=O)c1ccc(COc2ccc3c(c2)CCC3)o1	10%	-3%	-6%	6.9%	148%	5.4	-0.3
CC(=O)N1CCc2c(sc(NC(=O)CS(=O)(=O)c3ccc(F)cc3)c2C#N)C1	·	4%[15.4 µM]	-23%	7.3%	-1.7%	·	-3.0
CCn1cc(C(=O)NC(C)C2CC3CCC2C3)cn1 (stereo not drawn)	3%	2%	11%	0.8%	-2.1%	·	-1.0
O=C(NCc1cccs1)c1cc(S(=O)(=O)N2CCOCC2)ccc1N1CCCC1	·	21%[15.4 µM]	-5%	-0.1%	2.0%	·	-4.7
O=S(=O)(/C=C/c1ccccc1)N1CCN(Cc2ccccc2)CC1	10%	-6%[15.4 µM]	·	-1.4%	·	-0.9	-2.7
CCOC(=O)C1(C(=O)OCC)NC(=O)CC1CC(C)C (stereo not drawn)	·	-3%[15.4 µM]	-9%	-0.2%	1.6%	·	-2.4
CCC(C)C(=O)OC1CCC=C2C=CC(C)C(CCC3CC(O)CC(=O)O3)[C@@H]21 (stereo partly drawn)	14%	·	·	19%	·	-1.0	·
COCCCn1c(SCC(=O)NC2CCS(=O)(=O)C2)nnc1-c1ccc(Cl)cc1 (stereo not drawn)	·	11%	4%	2.9%	-0.5%	·	-3.7
Cc1nc(=O)c(-c2ccccc2)c(C)n1Cc1ccccc1	0%	25%	3%	·	0.0%	5.7	-0.6
CCCc1cc(=O)[nH]c(SC/C=C/c2ccccc2)n1	·	-1%[15.4 µM]	0%	8.1%	·	·	0.3
C=CCNc1nc(Nc2ccc(OC)cc2OC)nc(OCC)n1	8%	-19%	-24%	-0.2%	-2.7%	-2.1	-3.7
CC(=O)COc1ccc2c(c1C)O/C(=C\c1ccco1)C2=O	?	-15%	-25%	6.1%	-0.8%	?	-4.6
CC(C)COC(=O)c1ccc2c(c1O)C(=O)c1ccccc1C2=O	-28%	-25%	7%	1.4%	1.5%	2.0	13
CCOC(=O)C(NC(C)=O)(Nc1ccc(S(=O)(=O)Nc2nccs2)cc1)C(F)(F)F (stereo not drawn)	10%	-19%	7%	-0.1%	-4.3%	2.0	-0.5
CCN1CCN(c2ccc(S(=O)(=O)N(CC)CC)cc2[N+](=O)[O-])CC1	0%	23%	10%	-1.5%	-4.8%	2.6	-1.3
CC(C)CC1NC(=O)N(CC(=O)N2CCN(S(=O)(=O)c3ccc4ccccc4c3)CC2)C1=O (stereo not drawn)	9%	0%	?	0.2%	1.5%	-0.9	-0.9
The results go on:
SMILES	Sfp PPTase inh	gsp ag	gsp antagonist	PINK1 modulator	ClpP mod	Menin-MLL FL inh	D2 ag
COc1cc2c(cc1OC)CN(Cc1cc(=O)n3c(-c4ccccc4)csc3n1)CC2	-17%	-3%[15.4 µM]	-13%	-0.8%	0.4%	13	-0.3
CC(C)(C)NC(=O)C(c1ccc(F)cc1)N(Cc1ccco1)C(=O)Cn1nnc(-c2cccs2)n1 (stereo not drawn)	-7%	-24%	14%	2.7%	1.1%	0.2	-5.2
CCOc1ccccc1NC(=O)CN(c1ccc(OC)cc1)S(=O)(=O)c1c(C)noc1C	21%	?	3%	5.6%	-1.0%	2.6	-3.5
COc1ccc(S(=O)(=O)N(C)C[C@H]2Oc3ccc(NS(=O)(=O)c4c(C)noc4C)cc3C(=O)N([C@H](C)CO)C[C@@H]2C)cc1	·	-102%[inhibitor]	-15%	0.5%	-0.7%	·	-6.8
C=CCn1c(SCC(=O)N2CCCC2)nc2scc(-c3cccs3)c2c1=O	-10%	?	-13%	?	-2.2%	2.4	-1.7
CC(C)(O)CN(C(=O)C(c1ccccc1)c1ccccc1)C1CCCCC1	·	-10%	4%	-2.3%	1.5%	·	-1.7
Cc1ccccc1N=Cc1c(O)n(-c2nccs2)c(=O)c2ccccc12	-7%	23%	7%	3.1%	1.7%	-0.6	-4.1
COc1ccc(C(=O)NCCSCc2ccc(C)cc2)cc1	12%	-18%	-6%	-0.4%	0.5%	2.4	-4.9
Cc1ccc(C(=O)N2CCCC(Nc3ccc(F)cc3)C2)cc1C (stereo not drawn)	9%	-1%	-2%	0.0%	-2.2%	·	-4.2
O=C(Cc1ccc(F)cc1)Nc1ccc(Cl)cn1	8%	1%[15.4 µM]	14%	0.6%	-0.8%	1.5	1.3
Cc1ccc(OC(=O)CCS(=O)(=O)c2ccc(C)cc2)cc1	7%	27%	4%	1.6%	-4.9%	-18	0.5
CC(C)CNC(=O)c1ccc2c(c1)C(=O)N(C1CCCCC1)C2=O	10%	2%[15.4 µM]	-3%	4.9%	-2.1%	-7.2	11
CCc1ccccc1NC(=O)CN(c1ccc(OC)cc1OC)S(=O)(=O)c1ccccc1[N+](=O)[O-]	12%	-16%	?	-1.5%	·	0.5	4.2
Cc1ccccc1S(=O)(=O)N1C[C@H]2CON(C)[C@H]2C[C@H]1c1cccc(-c2ccc(C#N)cc2)c1	·	·	-4%	-1.1%	-0.1%	·	1.6
O=C(CCNC(=O)c1ccccc1)Nc1ccc(F)c(Cl)c1	35%[activator]	15%	-5%	1.8%	1.7%	2.7	-1.6
N#Cc1ccc(OCC(=O)Nc2nc(-c3ccncc3)cs2)cc1	·	-5%	1%	2.9%	-0.8%	·	-0.8
COc1ccc(-c2[nH]ncc2CN(C)Cc2cnccn2)c(OC)c1	14%	-47%[15.4 µM]	6%	0.0%	-2.8%	-1.6	-7.2
O=C1CCC(C(=O)N(c2ccccc2)C2(C(=O)NC3CCCCC3)CCCCC2)N1 (stereo not drawn)	8%	-5%	-6%	0.2%	0.7%	-0.5	0.8
COc1ccc(C)cc1NC(=O)CSc1ccc(Cl)cc1	-18%	2%	-20%	7.9%	·	0.7	8.8
O=C1CN(C(=O)COc2ccc(Br)cc2Br)c2ccccc2N1	1%	-8%	2%	-1.8%	-3.1%	5.7	-5.2
CC(=O)Oc1c(Cl)c(N2CCOCC2)c(OC(C)=O)c2ccccc12	-2%	-9%	-24%	0.6%	3.5%	4.8	-4.0
CC(C)CC1(C)NC(=O)N(CC(=O)Nc2cccc(S(=O)(=O)N(C)c3ccccc3)c2)C1=O (stereo not drawn)	2%	18%[15.4 µM]	5%	2.3%	·	7.4	-3.2
COc1ccc(Cc2nnc(SCC(=O)NCC3CCCO3)o2)cc1 (stereo not drawn)	-2%	-31%[inhibitor]	3%	·	-1.3%	-1.1	-2.3
N#Cc1ccccc1NC(=O)COC(=O)c1cccs1	·	-6%[15.4 µM]	6%	3.7%	0.1%	·	-1.3
COc1ccccc1OCC(=O)Nc1cccc(C(=O)N2CCOCC2)c1	-1%	-8%	6%	0.4%[38.3 µM]	-0.1%	-1.6	1.2

Ordered by value in Sfp PPTase inh (descending): 3 from the list above.
| SMILES | Sfp PPTase inh |
| --- | --- |
| O=C(Cc1ccc(F)cc1)Nc1ccc(Cl)cn1 | 8% |
| C=CCn1c(SCC(=O)N2CCCC2)nc2scc(-c3cccs3)c2c1=O | -10% |
| COc1ccc(C)cc1NC(=O)CSc1ccc(Cl)cc1 | -18% |

Following part
SMILES	Sfp PPTase inh	gsp ag	gsp antagonist	PINK1 modulator	ClpP mod	Menin-MLL FL inh	D2 ag
CCCN1C2CCCC1CC(NC(=O)c1cccc(OC)c1)C2 (stereo not drawn)	15%	22%[15.4 µM]	-7%	2.2%	-2.9%	-0.6	1.1
CC1CCCCC1NC(=O)CSc1nncn1N (stereo not drawn)	5%	4%[15.4 µM]	-1%	1.4%	·	5.1	1.1
Cc1cc(C)c(NC(=O)CS)c(Cl)c1	-25%	-10%	6%	0.1%	-0.1%	-2.8	-3.1
Cc1oc(-c2cccs2)nc1CS(=O)CC(=O)NCCCOC(C)C (stereo not drawn)	6%	?	0%	-0.7%	-1.0%	3.0	-0.6
COC(=O)C1=CN(Cc2ccccc2)C=C(C(=O)OC)C1c1ccc(O)c(OC)c1	-5%	-45%[inhibitor]	0%	2.4%	-27%	2.1	-4.3
CN(C)C(CN=C1NS(=O)(=O)c2ccccc21)c1ccco1 (stereo not drawn)	-2%	-46%[inhibitor]	4%	-0.7%	·	-1.0	3.2
CC1(C)COC(c2cc([N+](=O)[O-])ccc2Cl)=N1	8%	?	1%	0.9%	-1.1%	-2.8	0.6
CCC(C(=O)Nc1ncn[nH]1)(C(F)(F)F)C(F)(F)F	3%	-3%	7%	1.3%	-0.8%	1.6	0.0
COc1ccc(S(=O)(=O)N(C)C[C@H]2Oc3ccc(NC(=O)Nc4ccc5c(c4)OCO5)cc3C(=O)N([C@H](C)CO)C[C@@H]2C)cc1	·	·	-3%	1.0%	0.9%	·	3.9
